TRb-SRC2 inh – TRbeta-SRC2 interaction inhibition; Potency, µM (highest dose often 106 µM), for the others: top-dose activity change, negative = inhibition, actives largely listed as inhibitors; actives 0.065% (n = 280,000); TRbeta-SRC2 peptide binding, fluorescence polarization; receptor liganded with 1 µM T3; P10828;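 note: plate controls were bound peptide for no effect and peptide without receptor for full effect; nearly all actives have a fitted effect of over 50% in size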
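Human TRb LBD (0.6 uM) plus Texas Red-labeled SRC2 peptide (20 nM), 1uM T3, 5% DMSO, 5 hr at ambient temperature. Decreased polarization (555/632 nm) flags inhibition; data normalized to free and bound peptide controls.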
Tau fibril FP – blocks human tau fibril formation measured by polarization | K18 P301L tau heparin fibrillization, Alexa594 FP, 6 h | Potency, µM (titrated, usually from 57.7 µM), for the others: at the highest dose activity, negative = inhibition, actives largely listed as inhibitors | actives 0.39% (n = 280,000) | AID 1468; note: nearly all actives have a fitted effect of over 55% in size
Target sequence (P10636 561-689 P618L limits assumed): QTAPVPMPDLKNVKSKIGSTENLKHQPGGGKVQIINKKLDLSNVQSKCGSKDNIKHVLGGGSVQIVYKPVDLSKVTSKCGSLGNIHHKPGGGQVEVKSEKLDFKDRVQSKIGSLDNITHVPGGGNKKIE
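FP of Alexa 594-tau after heparin (20 uM) induction. Substrate: human K18 P301L, 15 uM unlabeled, 0.24 uM labeled. Buffer 100 mM sodium acetate pH 7. 6 hr, 37 C.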
TexasRed fluor – counter-screen for TRb-SRC2 inhibitors: fluorescence interference; TRb/SRC2 Texas Red total fluorescence interference; Potency, µM (titrated, usually from 106 µM), for inactives: at the highest dose fluorescence change, negative = quenching; actives 0.29% (n = 280,000); AID 1479; active = well fitted curve in either direction with a large enough effect; inconclusive = small, poorly fitted or top-dose-only effect
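Human TRb ligand-binding domain at 0.6 uM with 20 nM Texas Red SRC2 peptide in Tris buffer containing 1 uM T3 and 5% DMSO, incubated with compound 5 h at ambient temperature. Total fluorescence (555/632 nm) calculated as parallel + 2 × perpendicular.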
Tau fibril ThT – tau fibrillization inhibition (ThT binding) | P10636 | actives 2.1% (n = 270,000) | recombinant tau K18 P301L (four-repeat tau fragment), heparin-induced fibrillization, ThT fluorescence | Potency, µM (doses to about 57.4 µM), for inactives: at the highest dose activity, negative = inhibition, most hits filed as inhibitors; note: nearly all actives have a fitted effect of over 55% in size
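Aggregation was driven by heparin (20 uM final) acting on recombinant tau […] bearing P301L in 100 mM sodium acetate pH 7; fibrils were detected with Thioflavin T.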
RECQ1 helicase – blocks DNA unwinding by human RECQ1 | RECQ1 DNA unwinding, red fluorescence kinetic read | Potency, µM (series often up to 57.3 µM), without a hit: top-dose activity, negative = inhibition, hits mostly inhibitors | actives 0.54% (n = 240,000);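 note: plate controls were vehicle for no effect and no enzyme for full effect; nearly all actives have a fitted effect of over 30% in size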
Target sequence (P46063 whole entry, looked up): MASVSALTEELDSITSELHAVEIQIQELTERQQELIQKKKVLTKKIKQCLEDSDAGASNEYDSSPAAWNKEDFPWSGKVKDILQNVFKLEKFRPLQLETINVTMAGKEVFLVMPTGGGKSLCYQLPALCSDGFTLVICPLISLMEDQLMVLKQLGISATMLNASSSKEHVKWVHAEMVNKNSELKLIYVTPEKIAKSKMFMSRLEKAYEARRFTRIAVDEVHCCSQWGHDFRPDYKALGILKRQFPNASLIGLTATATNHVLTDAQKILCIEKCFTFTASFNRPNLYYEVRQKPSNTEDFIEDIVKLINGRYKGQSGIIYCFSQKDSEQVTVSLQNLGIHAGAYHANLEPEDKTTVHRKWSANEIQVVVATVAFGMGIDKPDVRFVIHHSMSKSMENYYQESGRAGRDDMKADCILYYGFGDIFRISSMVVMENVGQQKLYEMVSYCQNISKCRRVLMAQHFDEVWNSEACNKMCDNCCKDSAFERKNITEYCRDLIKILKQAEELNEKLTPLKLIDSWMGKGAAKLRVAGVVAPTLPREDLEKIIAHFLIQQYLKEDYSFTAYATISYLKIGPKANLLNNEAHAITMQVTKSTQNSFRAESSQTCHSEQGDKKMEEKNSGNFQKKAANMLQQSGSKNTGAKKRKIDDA
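50 nM RECQ1T1 preincubated 15 min with compound in Tris pH 8.0 buffer with MgCl2, DTT, Tween-20 and 2.5 ug/ml poly(dI-dC); started with 200 nM TAMRA/BHQ-2 forked duplex and 2 mM ATP. Unwinding read as fluorescence (525/598 nm), two reads 2 h apart.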
An asterisk follows results filed as active; i = inactive; ? = inconclusive; nt = no result given; & = joins results of further samples; [ ] = another dose, or the depositor's remark. Unless noted, calls come from the whole dose curve; as a rule, active = well fitted curve in the direction sought with a large enough effect; inconclusive = small, poorly fitted or top-dose-only effect, or another doubt; inactive = no such curve, though single readings can be large; an effect the other way counts as inactive or inconclusive. Unless noted, % is set by controls: 0 for no effect and ±100 for the full control effect; potency is the fitted concentration of half-maximal effect. Not all compounds are listed; count on the stated rates, not on these rows.

SMILES	TRb-SRC2 inh	Tau fibril FP	TexasRed fluor	Tau fibril ThT	RECQ1 helicase
N#CC(c1cccc(C(F)(F)F)c1)(c1ncc(C(F)(F)F)cc1Cl)N1CCOCC1 (configuration not stated)	-5%	-7%	2%	-16%	i
C=CCn1c(CCNC(=O)c2ccccc2F)nnc1SCC(=O)Nc1nc(C)cs1	-1%	1%	0%	10%	-14%
CCOC(=O)c1cc(C(=O)OCC)c2cccc(C)n2c1=O	7%	-7%	-3%	-6%	-6%
COc1ccc(OC)c(C2CC(=O)N3CN(c4cccc(Cl)c4)CSC3=C2C#N)c1 (configuration not stated)	1%	?	-5%	28µM*	-5%
Fc1ccc(N/N=C/C=C/c2ccccc2)c(F)c1	-3%	?	-20%	?	-2%
CN1CCNC(=O)C1CC(=O)NCCC1=CCCCC1 (configuration not stated)	0%	2%	-1%	-10%	i
CC(C)CCn1nnnc1CN1CCN(c2ccccc2)CC1	0%	0%	-2%	-6%	i
CN1CCNC(=O)C1CC(=O)NCC1(c2ccccc2)CCCCC1 (configuration not stated)	3%	-1%	0%	-8%	-1%
CCC(C)(C)n1nnnc1C(c1cccs1)N1CCc2ccccc21 (configuration not stated)	-6%	-5%	1%	-14%	7%
CCC(C)(C)n1nnnc1CN1CCN(c2nc3cc(OC)ccc3cc2C#N)CC1	2%	9%	2%	-12%	i
COc1cccc(OC)c1C1=NC(C)(C)CO1	-4%	-6%	-1%	-3%	1%
CC1=C(C(=O)Nc2cccnc2)C(c2ccccn2)n2nnnc2N1 (configuration not stated)	-5%	-4%	-3%	0%	-4%
COc1cc(-c2cc(OC)c3c(C)oc(C)c3c(=O)c2)ccc1O	4%	10%	-3%	?	-6%
O=C(Nc1cccnc1)c1sc(Nc2ccccc2)nc1-c1ccccc1	-2%	2%	-2%	-2%	i
COc1ccc(OCC(=O)Nc2cccc(C(C)=O)c2)cc1	-4%	0%	1%	-9%	-10%
O=C(N(c1ccccn1)c1ccccn1)C12CC3CC(CC(C3)C1)C2	-2%	0%	-1%	5%	0%
C[C@@H]1C[C@@H]2[C@H]3CCC4=CC(=O)C=C[C@]4(C)[C@]3(F)[C@@H](O)C[C@]2(C)[C@@]1(O)C(=O)CO	1%[53 µM]	nt	-4%[53 µM]	nt	i
COc1ccc(C(=O)N2CCC(n3c(C)nc4cc(F)ccc43)CC2)cc1OC	9%	-4%	1%	-11%	-4%
O=C1CC(c2ccc(F)c(Br)c2)C2=C(CCCC2=O)N1 (configuration not stated)	-18%	-2%	0%	3%	i
CO[C@@]12[C@@H](COC(N)=O)C3=C(C(=O)C(C)=C(N)C3=O)N1C[C@@H]1N[C@@H]12	1%	?	-7%	?	i

Rewritten with two lines to a compound: three of the compounds above.
Each structure is followed by: TRb-SRC2 inh, Tau fibril FP, TexasRed fluor, Tau fibril ThT, RECQ1 helicase
- CC1=C(C(=O)Nc2cccnc2)C(c2ccccn2)n2nnnc2N1 (configuration not stated)
  -5%, -4%, -3%, 0%, -4%
- CO[C@@]12[C@@H](COC(N)=O)C3=C(C(=O)C(C)=C(N)C3=O)N1C[C@@H]1N[C@@H]12
  1%, ?, -7%, ?, i
- COc1cccc(OC)c1C1=NC(C)(C)CO1
  -4%, -6%, -1%, -3%, 1%

(next part)
SMILES	TRb-SRC2 inh	Tau fibril FP	TexasRed fluor	Tau fibril ThT	RECQ1 helicase
CCOc1ccccc1OCCNC1CCCC1	-1%	-6%	-5%	-6%	-1%
CC1(C)COC(c2cccc(C3=NC(C)(C)CO3)n2)=N1	-1%	6%	-3%	-1%	-3%
Cc1cc(C(=O)NCC(=O)OCC(=O)N(C(C)C)C(C)C)ccc1[N+](=O)[O-]	0%	?	4%	-3%	-10%
CCn1c(CNc2ccc(C)cc2)nnc1SCC(N)=O	-2%	-14%	-6%	-3%	-6%
O=C(CSc1nnc(-c2ccco2)n1Cc1ccccc1)NC(=O)NCc1ccccc1	5%	-11%	-7%	-7%	i
COc1ccc(/C=C/C(=O)NC(=S)N2CCSCC2)cc1	-1%	1%	-6%	-12%	-36%
S=c1[nH]nc(COc2ccccc2)n1/N=C/C=C/c1ccccc1	2%	-5%	0%	?	-3%
CCSc1nnc2c(n1)[nH]c1c(C)cccc12	1%	3%	-5%	-11%	-5%
COc1cc(OC)c(/C=N/n2c(C)nnc2C)c(OC)c1	8%	-7%	1%	-2%	-3%
COc1ccc(-c2nnc(S/C(=C/c3ccc(Cl)cc3)C(=O)O)o2)cc1	2%	-5%	-1%	-2%	-4%
CC(C)(C)[C@]1(O)CCN2C[C@H]3c4ccccc4CCc4cccc(c43)[C@@H]2C1	-8%	-8%&-6%	-2%	-9%&-16%	-8%&-10%
Cc1cc(N/N=C/c2ccc(F)cc2)nc(-n2nc(C)cc2C)n1	2%	-3%	0%	-9%	-2%
O=C(CSc1ncn(-c2ccccc2)n1)Nc1ccc(Br)cn1	6%	-6%	0%	-16%	i
COc1ccc(Nc2nc(-c3ccc(OC)cc3)c(CCC(=O)O)s2)cc1	-6%	-1%	-4%	?	0%
COc1ccc(N/N=C(/C(N)=O)C2=NC(C)(C)Cc3ccccc32)cc1	8%	15%	-2%	7.9µM*	6%
COc1ccc(-c2cc(-c3n[nH]c(=S)n3-c3ccccc3OC)[nH]n2)cc1	5%	9%	-1%	?	-11%
COc1ccccc1C(CC(=O)Nc1ccccc1C)c1ccc(OC(C)C)cc1 (configuration not stated)	4%	2%	-9%	?	-15%
O=C(NCCc1ccccc1)Nc1ccc(Cl)cc1	-3%	1%	-4%	3%	-6%
CC1(C)OC2CC3C4CC(F)C5=CC(=O)C=CC5(C)C4C(O)CC3(C)[C@]2(C(=O)CO)O1 (some centres not stated)	9%	-7%	-3%	-20%	i
CC(C)(C)[C@]1(O)CCN2CC3c4ccccc4CCc4cccc(c43)[C@@H]2C1 (some centres not stated)	5%&11%	1%&2%	0%&0%	-9%&-8%	-11%&-5%
CCOc1ccc(C=NC23CN4CN(CN(C4)C2)C3)cc1	4%	-1%	-2%	-4%	i
Cc1nc(NC(=O)c2ccccc2)sc1Cc1ccc2c(c1)OCO2	4%	-8%	-1%	-5%	i
CCn1c(Cc2ccccc2)nnc1SCC(=O)Nc1ccc(C)cc1	0%	8%	-5%	-1%	6%
C/C(=N/NC(=O)c1cccc(C)c1)c1c(O)cc(C)oc1=O	-1%	3%	-4%	?	-5%
Cc1nc2cc(S(=O)(=O)N3CCC(C(=O)O)CC3)ccc2n1C1CCCC1	-4%	-8%	0%	-8%	-4%
CCN1CCCC1CNS(=O)(=O)c1cccc(C(F)(F)F)c1 (configuration not stated)	-1%	0%	0%	1%	0%
CCOC(=O)CN1C(=O)SC(Nc2ccc(C)cc2)C1=O (configuration not stated)	-2%	3%	0%	-6%	i
COc1ccc(OC)c(-c2csc(N3CCC(c4ccccc4)CC3)n2)c1	3%	17%	-6%	-11%	i
COc1ccccc1NC(=S)N1CCc2cc(OC)c(OC)cc2C1	-2%	2%	2%	-11%	-4%
O=[N+]([O-])c1cccc(/C=N/n2c(COc3ccccc3)n[nH]c2=S)c1	-5%	4%	-1%	?	5%
CN(Cc1ccccc1)C(=O)c1ccc2c(c1)OCO2	-11%	2%	-2%	4%	-1%
COCCCN1C(=O)c2[nH]nc(-c3cc(C)cc(C)c3O)c2C1c1ccc(O)c(OC)c1 (configuration not stated)	-12%	-15%	-3%	-15%	-4%
COc1cccc(=O)c2c(C)oc(C)c12	1%	4%	3%	-14%	-3%
COCCCNC(=S)NNC(=O)C1CC1c1ccc(C(C)(C)C)cc1 (configuration not stated)	3%	-3%	-1%	-2%	4%
Cc1csc(NC(=O)CSc2ncn(-c3ccccc3)n2)n1	9%	-3%	1%	-8%	-10%
O=C(NC1CCCC1)C1CCN(c2cnccn2)CC1	7%	2%	0%	11%	i
Cc1cccc(NC2SC(=O)N(CC(=O)O)C2=O)c1 (configuration not stated)	-8%	-8%	-1%	4%	-6%
Cc1nc(NC(=O)c2ccc(Cl)cc2)sc1Cc1ccc2c(c1)OCO2	0%	?	-2%	0%	-4%
COc1ccc(-n2c3c(c(=O)[nH]c2=O)C(NC(C)=O)(C(F)(F)F)C(=O)N3)cc1 (configuration not stated)	-2%&-1%	1%&1%	-1%&-1%	1%&4%	14%
C=CCn1c(CCNC(=O)c2cccs2)nnc1SCC(=O)Nc1cccc(C(C)=O)c1	2%	-4%	0%	-4%	i
O=C(CNC(=O)Cn1cnc2sc3c(c2c1=O)CCCC3)NCc1ccccn1	4%	8%	-3%	6%	i
C/C(=N/OCO/N=C(\C)c1ccccc1)c1ccccc1	2%	-1%	-3%	-1%	-3%
CC(O)c1cccc(NC(=O)CCCc2ccccc2)c1 (configuration not stated)	5%	-4%	4%	-9%	i
CCN1CCCC1CNS(=O)(=O)c1ccc(C(=O)Nc2ccccc2)cc1 (configuration not stated)	8%	-2%	-2%	1%	i
COc1cc(C)c(Cl)c(C)c1S(=O)(=O)NCc1ccc2c(c1)OCO2	2%	-5%	-3%	-5%	i
CC(=O)Nc1ccc(NC(=O)CSc2ccc(-c3ccco3)nn2)cc1	3%	-16%	-3%	?	-15%
CCn1c(COc2ccc(Cl)cc2)nnc1SCC(=O)Nc1ccc2c(c1)OCCO2	-2%	-8%	-7%	-6%	i
CCOC(=O)c1cc(C#N)c(N2CCN(c3ccccn3)CC2)nc1-c1ccccc1	3%	5%	-3%	-10%	-11%
CCN(CC)C(=O)C1=C(C)Nc2nnnn2C1c1cccnc1 (configuration not stated)	-8%	5%	-4%	-1%	-13%
COc1ccc(-c2cc3ccccc3oc2=O)cc1NC(=O)c1ccc([N+](=O)[O-])o1	-11%	15%	-1%	?	11%
CCOc1ccc(NC(=O)C2(c3ccc(OC)c(OC)c3)CCCC2)cc1	-8%	4%	0%	-12%	-4%
COc1ccc(-c2cc(OC)c3c(C)oc(C)c3c(=O)c2)cc1OC	-14%	?	12%	?	3%
CCN1C(=O)CSc2ccc(C(=O)NC3CCCCC3)cc21	-5%	-5%	1%	-10%	i
C[C@@]12C[C@@H](O)[C@H]3[C@@H](CCC4=CC(=O)CC[C@]43C)[C@H]1CC[C@H]2C(=O)CO	0%[53 µM]	nt	-1%[53 µM]	nt	-2%[25.9 µM]
O=C(COC(=O)c1ccc(NS(=O)(=O)c2ccc3c(c2)OCCO3)cc1)NC1CCS(=O)(=O)C1 (configuration not stated)	-6%	1%	-1%	4%	i
COc1cccc(C2[C@H](C)C3(CCN2C)OCCO3)c1 (some centres not stated)	-1%	-1%	2%	1%	i
O=C1Nc2cc(C(=O)N3CCc4ccccc4C3)ccc2S/C1=C\c1ccccc1	0%	-2%	4%	-13%	-8%
COc1ccccc1NC(=O)C1=C(C)Nc2nnnn2C1c1ccncc1 (configuration not stated)	5%	7%	1%	-6%	-12%
COc1ccc(/C(O)=C2\C(=O)C(=O)N(c3cc(C)on3)C2c2ccc(OC)c(OC)c2)cc1OC (configuration not stated)	0%	0%	-2%	0%	-4%
CCOc1cc(S(=O)(=O)NCc2ccc3c(c2)OCO3)c(C)cc1C	3%	-5%	-4%	-15%	-3%
C[C@H]1C[C@H]2[C@@H]3CCC4=CC(=O)C=C[C@]4(C)[C@@]3(F)[C@@H](O)C[C@]2(C)[C@@]1(O)C(=O)CO	-8%[201 µM]	nt	-9%[201 µM]	nt	nt
Cc1ccc(NC(=O)C2CC(Cl)=CCC2C(=O)O)c([N+](=O)[O-])c1 (configuration not stated)	-6%	-2%	-5%	-13%	-6%
CCCNC(=O)c1ccc(Cl)cc1Cl	?	5%	?	-12%	nt

Bioassay records deposited in PubChem by National Center for Advancing Translational Sciences (NCATS).
